High-throughput results: PubChem BioAssay, National Center for Advancing Translational Sciences (NCATS)
TRPML1 blocker: human mucolipin-1 channel inhibition; TRPML1-inducible cells, Ca2+ dye fluorescence, FDSS; hits give low values; inhibition of EC80 agonist-evoked calcium signal; activity change, negative = inhibition, % (test concentration not listed); Q9GZU1; 0.02% of 390,000 active; in the data active means activity change below about -50%; inconclusive means about -30% to -50%; inactive means above about -30%;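 also: stimulus is agonist 54-4 at its EC80 concentration; % is scaled to controls: 0 for no effect and ±100 for the full control effect; compound concentration not given in the record; the text of the record puts the active cut at -80%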
Target sequence (Q9GZU1 whole entry, looked up): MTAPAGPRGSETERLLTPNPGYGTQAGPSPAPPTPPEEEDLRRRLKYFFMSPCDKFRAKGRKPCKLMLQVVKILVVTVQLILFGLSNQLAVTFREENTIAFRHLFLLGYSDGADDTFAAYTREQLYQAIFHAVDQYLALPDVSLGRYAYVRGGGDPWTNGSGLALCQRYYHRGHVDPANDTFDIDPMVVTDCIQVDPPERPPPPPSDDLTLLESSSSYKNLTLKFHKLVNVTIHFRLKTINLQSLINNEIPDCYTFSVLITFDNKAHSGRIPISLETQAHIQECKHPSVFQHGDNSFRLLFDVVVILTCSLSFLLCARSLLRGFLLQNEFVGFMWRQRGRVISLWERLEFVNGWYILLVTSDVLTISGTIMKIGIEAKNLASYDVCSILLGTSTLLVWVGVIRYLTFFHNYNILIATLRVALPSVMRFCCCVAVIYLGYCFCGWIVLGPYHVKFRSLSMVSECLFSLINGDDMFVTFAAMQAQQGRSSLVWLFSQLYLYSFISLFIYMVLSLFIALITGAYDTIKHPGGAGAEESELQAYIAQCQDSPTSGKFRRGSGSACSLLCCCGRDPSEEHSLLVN
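TRPML1-DL cells, Tet-induced overnight (~16 h, 37 °C) at 1,500 cells/well, were loaded with Ca8 no-wash dye plus quencher for 45-90 min at room temperature. Compounds were pinned during FDSS kinetic reading; agonist 54-4 at EC80 (4 uM final) then added.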
ClpP mod: qHTS Assay for Activators of ClpP. 1.9% of 340,000 active. purified B. subtilis ClpP, FRET peptide cleavage, 20 min. ATP-dependent Clp protease proteolytic subunit (Bacillus subtilis (strain 168)), P80244. Potency, µM (highest dose often 57.5 µM), inactives show top-dose activity change, negative = active. AID 651965, 2013; active = well fitted falling curve with a large enough effect; inconclusive = small, poorly fitted or top-dose-only effect; inactive = no such curve, though single readings can be large or run the other way; also: potency is read from the fitted curve at half-maximal effect; the source files actives as falling curves though it sought activators and does not explain the sign; nearly all actives have a fitted effect of over 65% in size; many hits overshoot -100%
Target sequence (P80244 whole entry, looked up): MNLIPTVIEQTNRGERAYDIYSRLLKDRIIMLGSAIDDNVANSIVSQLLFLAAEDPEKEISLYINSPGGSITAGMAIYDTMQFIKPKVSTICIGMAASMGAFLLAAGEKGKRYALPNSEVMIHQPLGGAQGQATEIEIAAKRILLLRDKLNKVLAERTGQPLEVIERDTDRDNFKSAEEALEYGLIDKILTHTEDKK
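FRET quenching reversal measured ClpP activation: 10 microg/mL B. subtilis ClpP at pH 8 with the FRET-FV decapeptide, read at 430 nm after 320 nm excitation. The 20-min minus 0-min signal was scaled between DMSO/no-enzyme wells and ADEP (5.8 microM final).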
Active calls of the source: *; ? = inconclusive.

Structure | TRPML1 blocker | ClpP mod
COc1cc2nc(NCCC(C)C)n3nc(-c4ccccc4)nc3c2cc1OC | 11 | -12%
Cc1ccc(CNC(=O)c2oc3ccc(S(=O)(=O)N4CCC(C)CC4)cc3c2C)cc1 | -6 | 1.1%
CCOc1ccc(CN2CCN(Cc3ccc4c(c3)c3ccccc3n4CC)CC2)cc1 | -6 | 20µM*
COc1ccc(C(=O)N(Cc2cc(OC)c(OC)c(OC)c2)C2CCS(=O)(=O)C2)cc1Cl (stereo not drawn) | 12 | 0.2%
Cc1cccc(C(=O)Nc2nc(-c3nnn(-c4cc(F)ccc4F)c3C)ns2)c1 | 3 | -2.5%
Cc1cc(N2CCC(C(=O)Nc3ccc(Cl)cc3)CC2)n2nc(C)c(-c3ccc(Cl)cc3)c2n1 | 1 | 4.1%
Cc1cccc(NC(=O)N2CC(=O)Nc3sc4c(c3C2c2ccccc2)CCCC4)c1C (stereo not drawn) | 6 | -4.1%
CCC(=O)N1CCc2cc(S(=O)(=O)NC(CC(C)C)C(=O)NCc3ccc(F)cc3)ccc21 (stereo not drawn) | 3 | 0.5%
CCCCS(=O)CC(O)CSc1nc(-c2ccc(OC)cc2)cc(-c2ccccc2)c1C#N (stereo not drawn) | -9 | 4.3%
CCOc1ccc(N(C(=O)CC(C)C)S(=O)(=O)c2ccc3c(c2)oc(=O)n3C)cc1 | -4 | -1.8%
O=C(NCCCN1CCN(c2cccc(Cl)c2)CC1)c1nnc(Cc2ccc(F)cc2Cl)o1 | 11 | -2.3%
CCc1ccccc1NC(=O)C(=O)NCCCN1CCOCC1 | 7 | -2.2%
CCN(C(=O)Cn1c(SCC(=O)Nc2ccc(OC)cc2)nc2ccccc21)c1cccc(C)c1 | -8 | -3.8%
Cc1sc2ncn(CC(=O)Nc3ccc(C(F)(F)F)cc3)c(=O)c2c1S(=O)(=O)N1CCN(C)CC1 | -10 | 0.9%
COc1ccc(OC)c(C2C(C(=O)Nc3ccccc3OC)=C(C)Nc3c(C(=O)Nc4ccc(F)cc4)cnn32)c1 (stereo not drawn) | 8 | ?
CCOC(=O)CSc1nc2sc3c(c2c(=O)n1-c1ccc(OC)cc1)CC(C(C)C)OC3 (stereo not drawn) | -16 | 0.1%
Cc1ccc(CNC(=O)c2cnn3c(C)c(Cc4c(F)cccc4Cl)c(C)nc23)cc1 | -1 | ?
COc1ccccc1C(=O)Nc1cccc(C(=O)OCc2cc(=O)n3nc(C4CC4)sc3n2)c1 | -8 | 1.0%
O=C(Nc1ccc(F)c(Cl)c1)C1CCN(S(=O)(=O)c2ccc3[nH]c(=O)ccc3c2)CC1 | -17 | -13%
Cc1ccc(COC(=O)c2ccc(-c3nnn(Cc4ccc(C)cc4)n3)cc2)cc1 | 2 | 0.6%
Cc1cc(C)cc(C(=O)Nc2nnc3n2CCS3)c1 | 10 | 2.9%
Brc1cccc(-c2nnn3c2nc(NC2CCCCC2)c2ccccc23)c1 | 51 | ?
CCCCCSc1nnc2c(n1)[nH]c1c(C)cccc12 | -16 | -1.5%
COc1ccc(OC)c(NC(=O)c2cnn(-c3ccc(C)cc3)c2C2CCNCC2)c1 | 1 | 1.4%
COc1ccc(CCC(=O)NC2CC(=O)N(c3ccc(C)c(C)c3)C2)cc1 (stereo not drawn) | 0 | 1.8%
CC(C)(C)C1CCc2onc(C(=O)Nc3sc4c(c3C(N)=O)CCCC4)c2C1 (stereo not drawn) | 1 | -8.2%
Cc1ccc(-n2nc3ccc(NC(=O)c4cc5ccccc5o4)cc3n2)cc1 | 20 | ?
COc1ccc(N2CC(NC(=O)/C=C\c3ccc4c(c3)OCO4)CC2=O)cc1 (stereo not drawn) | -13 | 28µM*
Cc1nn(CC(=O)N2CCC(C)CC2)c(=O)c2cc3sccc3n12 | 6 | -20%
COc1cccc(C(=O)Nc2nc(-c3nnn(-c4cccc(Cl)c4C)c3C)ns2)c1 | 44 | -9.3%
Cc1ccccc1CNC(=O)c1[nH]c(C(F)(F)F)nc1-c1ccccc1 | -2 | -0.4%
CCCN(CCC)Cc1cc(=O)oc2cc(C)c(Cl)cc12 | -26 | -9.9%
CCc1ccc(CNC(=O)c2c(C)oc3ncnc(N4CCOCC4)c23)cc1 | 0 | 1.1%
Cc1ccc(C)c(CNC(=O)CN2C(=O)CSc3ccc(S(=O)(=O)N(C)C)cc32)c1 | -10 | -1.2%
COc1ccc2nc3sc(C(=O)NCCc4ccc(Cl)cc4)cc3cc2c1 | -7 | -5.2%
NC(=O)c1ccccc1NC(=O)CN1c2ccccc2S(=O)(=O)c2ccccc21 | -11 | -7.5%
Cc1ccc(CN(C(=O)COc2ccc(C(C)C)cc2)C2CCS(=O)(=O)C2)o1 (stereo not drawn) | -2 | -2.9%
COc1cccc(C(=O)Nc2ccc3oc(-c4cccc5c(Br)cccc45)nc3c2)c1 | -7 | 4.9%
CC(=O)c1cccc(NC(=O)c2cc(C)nc3c2c(C)nn3-c2cccc(Cl)c2C)c1 | -2 | 101%
COc1cc(OC)c(NC(=O)Cn2cnc3sc(C)c(S(=O)(=O)N4CCN(C)CC4)c3c2=O)cc1Cl | -2 | -3.6%
CC(=O)N1CCCC1c1nc2ccccc2n1Cc1c(F)cccc1Cl (stereo not drawn) | -12 | 0.5%
COc1ccc(-c2nn(-c3ccccc3)cc2CNC[C@H]2O[C@@H](n3ccc(=O)[nH]c3=O)[C@H](O)[C@@H]2O)cc1 | 14 | -16%
CCc1ccc(OCC(=O)N(Cc2ccco2)Cc2ccccc2Cl)cc1 | -12 | 1.7%
COc1ccccc1CN1CCC(CNC(=O)c2cnn(-c3ccc(Cl)cc3)c2C2CCN(C(=O)OC(C)(C)C)CC2)CC1 | -15 | 1.1%
CCC(=O)C1=C(c2ccc(OC)c(OC)c2)N(C(=O)CC)n2c(nnc2-c2ccc(C)cc2)S1 | 26 | -4.0%
COc1ccc(-c2cc(C(F)(F)F)n3nc(C(=O)Nc4cc(Cl)cc(Cl)c4)cc3n2)cc1 | -3 | ?
Cc1ccc(-n2nnnc2CNC(=O)c2cc(C(F)(F)F)cc(C(F)(F)F)c2)cc1C | 21 | 0.9%
CCOc1ccccc1NC(=O)c1c(C)cc(C)nc1SCC(=O)c1cccc(OC)c1 | 62 | -0.9%
COC(=O)c1c(-c2cccs2)csc1NC(=O)c1ccc(C(C)(C)C)cc1 | -2 | 3.6%
Cc1cc(C)c2c(=O)c3c(oc2c1)C(=O)N(Cc1ccc(F)cc1)C3c1cccc(O)c1 (stereo not drawn) | -22 | 0.9%

New compounds follow:
Structure | TRPML1 blocker | ClpP mod
Cc1ccc(CCNC(=O)c2c(C)oc3ncn(CC(C)C)c(=O)c23)cc1 | ? | -3.9%
Cc1ccc(S(=O)(=O)c2[nH]c(-c3ccccc3)nc2SCCC(=O)O)cc1 | 12 | -2.0%
CCCN1C(C(=O)c2ccccc2)=C(OC(=O)COc2ccccc2)c2ccccc2S1(=O)=O | 1 | -2.1%
Cc1ccc(NC(=O)C(=O)NCC(c2ccc3c(c2)OCO3)N2CCOCC2)c(C)c1 (stereo not drawn) | -11 | -2.7%
CCOc1ccc(-c2nnc(SCC(=O)Nc3cc(C)ccc3OC)o2)cc1 | 25 | 4.1%
COc1ccc(-c2cc(C(F)(F)F)nc(SCCC(=O)Nc3ccc(O)cc3)n2)cc1 | 1 | -3.1%
Cc1ccc(-c2nnc(Nc3ccc(O)cc3)c3ccccc23)cc1S(=O)(=O)N1CCCCC1 | 3 | -0.8%
CN(Cc1ccc(Cl)c(Cl)c1)C(=O)c1[nH]c(C(F)(F)F)nc1-c1ccccc1 | -10 | -0.2%
CCC(=O)N1CCc2cc(Br)cc(S(=O)(=O)N3CCN(c4ccc(C(C)=O)cc4)CC3)c21 | -8 | -0.9%
Cc1cccc(C)c1Nc1c(-c2ccsc2)nc2cccc(C)n12 | 26 | 35µM*
Cc1ccc2c(c1)Cc1c(nc(-c3ccc(F)cc3)nc1SCC(=O)N1CCCCC1)O2 | 18 | -3.4%
CC(=O)Nc1nonc1-c1nnc(SCC(=O)Nc2ccccc2Cl)n1C | 5 | 1.9%
Cc1ccc(NC(=O)C2CCN(c3nn4c(=O)cc(C)nc4s3)CC2)cc1 | 18 | -0.2%
Cc1ccc2nc(-c3cc(NC(=O)c4ccc5c(c4)OCCO5)ccc3Cl)oc2c1 | -4 | ?
COc1ccc(-c2nc(CCNC(=O)c3cccs3)cs2)cc1OC | 13 | 28µM*
Clc1ccc(-c2nc3c4cnn(-c5ccccc5Br)c4ncn3n2)c(Cl)c1 | -8 | -2.0%
COC(=O)c1ccc(OCC2c3cc(OC)c(OC)cc3CCN2C(=O)Cc2ccc(OC)cc2)cc1 (stereo not drawn) | 57 | 0.7%
COc1ccc(OC)c(NC(=O)c2cc(CN3CCCC3)on2)c1 | 21 | -0.6%
CCOC(=O)Cn1c(=O)n(C2CCCCC2)c2nc(-c3ccc(C(C)C)cc3)nc(C(N)=O)c21 | 5 | -14%
CCOC(=O)c1ccc(CN(Cc2ccc(F)cc2)S(=O)(=O)c2ccc(F)c(C(=O)Nc3c(C)cccc3C)c2)cc1 | -11 | -2.8%
COc1ccccc1NC(=O)c1cc2c(C)nn(-c3ccccc3)c2s1 | 63 | ?
COc1ccc(OCC(=O)NCC(c2ccc(OC)cc2)N2CCOCC2)cc1 (stereo not drawn) | -23 | -1.6%
CCC(C(=O)Nc1ccc(C)c(C)c1)n1c(=O)c(C(F)(F)F)nc2ccccc21 (stereo not drawn) | 14 | -3.3%
Cc1cccc(C)c1OCCCCn1c(C2CC(=O)N(c3ccc(F)cc3)C2)nc2ccccc21 (stereo not drawn) | 79 | -2.1%
Nc1c(C(=O)Nc2cccc(C(F)(F)F)c2)c2ccccn2c1C(=O)c1ccccc1 | 16 | -0.2%
CCn1ccc2cc(S(=O)(=O)N3CCCN(C(=O)Nc4ccc(C)cc4Cl)CC3)ccc21 | -16 | -6.7%
COc1ccc(-c2cn3cccnc3n2)cc1NC(=O)Nc1ccc(Cl)cc1 | -11 | 4.8%
Cc1cc(C)n2nc(CNC(=O)c3ccccc3Cl)nc2n1 | -16 | 0.0%
CN(C(=O)CSc1cn(CC(=O)N2CCCCC2)c2ccccc12)c1ccccc1 | 5 | -0.1%
CCCCn1c(=NC(=O)c2cc3ccccc3o2)c(C(=O)OCC)cc2c(=O)n3ccccc3nc21 | 23 | ?
O=C(c1ccc2c(c1)N(Cc1cccc(F)c1)C(=O)c1ccccc1S2)N1CCOCC1 | -15 | -1.6%
CCc1ccc(NC(=O)CC(c2cc(OC)c(OC)c(OC)c2)N2Cc3ccccc3C2=O)cc1 (stereo not drawn) | -19 | 0.9%
Cn1c(=O)oc2cc(S(=O)(=O)N3CCCC(C(=O)N4CCN(c5ccc(Cl)cc5)CC4)C3)ccc21 (stereo not drawn) | 1 | 0.0%
COc1ccccc1C(=O)NC1(C(F)(F)F)C(=O)Nc2c1c(=O)[nH]c(=O)n2CCc1ccccc1 (stereo not drawn) | 8 | 1.0%
O=C(Cc1ccc(NC(=O)N2CCSc3ncccc32)cc1)NCc1ccccc1Cl | 1 | -15%
COc1ccc(CCNC(=O)CCCn2c(=O)c3ccccc3n(Cc3ccccc3C)c2=O)cc1OC | 26 | -4.2%
CC(C)(C)c1cc2nc(NCCOc3ccccc3)ccn2n1 | -9 | -16%
Cc1c(C(=O)OC2CCCC2)[nH]c2c1C(=O)CC(c1ccc(C(C)(C)C)cc1)C2 (stereo not drawn) | 9 | -1.1%
Cc1ccc2nc(-c3ccc(NC(=O)COc4ccccc4)cc3)sc2c1 | -21 | 4.8%
CCOC(=O)CNC(c1ccccc1)c1cc(Br)ccc1NC(=O)c1cccc(Cl)c1 (stereo not drawn) | 69 | ?
Cc1cccc(-n2c(-c3ccccc3)cn3c4c(=O)[nH]c(=O)n(C)c4nc23)c1 | -9 | -1.2%
CC(C)c1ccc(NC(=O)CCNS(=O)(=O)c2ccc3c(c2)oc(=O)n3C)cc1 | -13 | 1.9%
CCC(=O)N1CCc2cc(Br)cc(S(=O)(=O)CCC(=O)NCCc3cccc(C)c3)c21 | 19 | 0.0%
O=C(NCc1ccccc1F)C(=O)NCC(c1ccc2c(c1)OCO2)N1CCOCC1 (stereo not drawn) | -3 | -0.7%

These rows are one share of the data. The share of hits here may be higher or lower than overall.
